Cruzain noTriton – cruzain (T. cruzi) inhibition without detergent. Potency, µM, inactives show max response, negative = inhibition, hits mostly inhibitors. P25779. AID 1476. 2.3% of 200,000 active. purified cruzain, Z-FR-AMC fluorescence, no detergent; active = well fitted curve in the direction sought with a large enough effect; inconclusive = small, poorly fitted or top-dose-only effect, or another doubt; inactive = no such curve, though single readings can be large; an effect the other way counts as inactive or inconclusive;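 note: plate controls were enzyme without inhibitor for no effect and buffer without enzyme for full effect; nearly all actives have a fitted effect of over 40% in size; top concentration of the series not given in the record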
Target sequence (P25779 123-467 limits assumed): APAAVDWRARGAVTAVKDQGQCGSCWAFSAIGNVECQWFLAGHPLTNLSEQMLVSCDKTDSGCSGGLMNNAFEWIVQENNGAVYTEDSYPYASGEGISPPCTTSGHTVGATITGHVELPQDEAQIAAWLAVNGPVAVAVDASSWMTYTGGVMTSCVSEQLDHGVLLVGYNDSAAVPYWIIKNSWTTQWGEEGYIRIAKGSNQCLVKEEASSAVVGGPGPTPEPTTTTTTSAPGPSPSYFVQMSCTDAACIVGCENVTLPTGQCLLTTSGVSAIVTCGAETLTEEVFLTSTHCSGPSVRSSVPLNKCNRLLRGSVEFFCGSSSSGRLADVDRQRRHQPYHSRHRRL
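Purified cruzain at 1.5 nM, pre-incubated 15 min with compound at room temperature in 100 mM sodium acetate pH 5.5, 5 mM DTT, 0.00005% Triton X-100. Reaction started with 2 uM Z-FR-AMC; AMC fluorescence increase over 60 s gives rate.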
SARS PLpro yeast – SARS-CoV PLP inhibition in yeast; S. cerevisiae expressing SARS-CoV PLpro, growth rescue; control for the full effect not named in the record; Potency, µM (highest dose often 32.9 µM), inactives show at the highest dose activity, positive = growth rescue; 0.19% of 330,000 active; note: 0% is about no effect; nearly all actives have a fitted effect of over 55% in size; growth read by luminescence after 48 h
2A StopGo – lowers the luciferase signal of an FMDV 2A StopGo reporter; human cells with a luciferase reporter of 2A StopGo recoding; control for the full effect not named in the record; Potency, µM (doses to about 57.9 µM), without a hit: at the highest dose signal change, negative = less light; 1.2% of 410,000 active; active = well fitted falling curve with a large enough effect; inconclusive = small, poorly fitted or top-dose-only effect; inactive = no such curve, though single readings can be large or run the other way; tested in HEK293T cells; note: % is set by controls: 0 for no effect and ±100 for the full control effect; nearly all actives have a fitted effect of over 45% in size; luciferase light after 4 h
MARV entry inh – Marburg virus entry inhibition. Marburg virus pseudotyped entry inhibition, cell reporter; control for the full effect not named in the record; about a third of the inactives were read at about 46 µM. Potency, µM (titrated, usually from 37.8 µM), for inactives: top-dose activity change, negative = inhibition, hits mostly inhibitors. 1.8% of 300,000 active. AID 540276; active = well fitted inhibition curve with a large enough effect; inconclusive = small, poorly fitted or top-dose-only effect, or effect the other way; inactive = flat fitted curve, though single readings scatter; tested in HEK293 cells; about a fifth of its hits are not listed in these tables; note: % is set by controls: 0 for no effect and ±100 for the full control effect; luciferase read-out
RE007 growth inh – less growth of the S. pombe RE007 Vpr strain. S. pombe RE007 Vpr strain, BacTiter-Glo ATP luminescence, 24 h; control for the full effect not named in the record. Potency, µM (highest dose often 92.2 µM), without a hit: at the highest dose activity change, negative = less growth. 0.21% of 360,000 active. AID 651644; active = well fitted falling curve with a large enough effect; inconclusive = small, poorly fitted or top-dose-only effect; inactive = no such curve, though single readings can be large or run the other way;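 note: % is set by controls: 0 for no effect and ±100 for the full control effect; nearly all actives have a fitted effect of over 50% in size; the assay follows cell death caused by Vpr and the record does not say whether a fall means rescue or toxicity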
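Fission yeast RE007 carrying one integrated HIV-1 vpr copy, seeded at OD 0.01 in PMG+AL medium with 23 nL pinned compound. Grown 24 h at 30 degrees; viability read by BacTiter-Glo luminescence after 5 min.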
Lassa entry inh – inhibitors of Lassa virus binding or cell entry. Lassa virus pseudotype entry inhibition, cell reporter; control for the full effect not named in the record. Potency, µM (top dose mostly 37.9 µM), for the others: top-dose activity change, negative = inhibition, actives largely listed as inhibitors. 1.2% of 300,000 active. AID 540256; active means well fitted inhibition curve with a large enough effect; inconclusive means small, poorly fitted or top-dose-only effect, or effect the other way; inactive means flat fitted curve, though single readings scatter; tested in HEK293 cells; note: % is set by controls: 0 for no effect and ±100 for the full control effect; nearly all actives have a fitted effect of over 50% in size; luciferase read-out
Cruzain inh Det – cruzain (T. cruzi) inhibition with detergent | Potency, µM, inactives show max response, negative = inhibition, usual class: inhibitors | P25779 | purified cruzain, Z-FR-AMC fluorescence, 0.01% Triton | AID 1478 | 0.43% of 200,000 active; active = well fitted curve in the direction sought with a large enough effect; inconclusive = small, poorly fitted or top-dose-only effect, or another doubt; inactive = no such curve, though single readings can be large; an effect the other way counts as inactive or inconclusive;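 note: plate controls were neutral wells for no effect and buffer without enzyme for full effect; nearly all actives have a fitted effect of over 40% in size; top concentration of the series not given in the record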
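Cruzain (1.5 nM) preincubated 15 min at RT with compound in 100 mM sodium acetate pH 5.5, 5 mM DTT, 0.01% Triton X-100. Reaction started with 2 uM Z-FR-AMC; AMC fluorescence (ex 360/em 450 nm) change over 60 s gave rate.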
NS1 inh – inhibitors of influenza NS1 protein function. S. cerevisiae slowed by influenza A NS1, growth recovery by OD600. 0.4% of 270,000 active. AID 2326. Potency, µM (titrated, usually from 46.1 µM), for the others: at the top dose activity, positive = more growth; note: actives are rising curves; nearly all actives have a fitted effect of over 50% in size
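In this qHTS, NS1 from influenza A is expressed in budding yeast, where it slows growth. Cells are switched from glucose to 2% galactose medium (pH 6.0, -URA), treated with compound, and growth recovery is read at OD600.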
Active calls of the source: *; ? = inconclusive; . = not tested or not shown; & = joins results of further samples; [ ] = remark or other dose. Unless noted, calls come from the whole dose curve; as a rule, active means well fitted rising curve with a large enough effect; inconclusive means small, poorly fitted or top-dose-only effect; inactive means no such curve, though single readings can be large or run the other way. Potency is the fitted concentration of half-maximal effect.

SMILES	Cruzain noTriton	SARS PLpro yeast	2A StopGo	MARV entry inh	RE007 growth inh	Lassa entry inh	Cruzain inh Det	NS1 inh
COc1ccccc1N1CCN(C(=O)COc2cc(C)cc3oc(=O)cc(C)c23)CC1	.	5%	?	.	0%	.	.	18%
COc1ccc(C2CC(=O)Nc3c2c(C)nn3-c2nncc(-c3ccc(C)cc3)n2)c(OC)c1OC (stereo not given)	-14%	.	-28%	23%[46.1 µM]	.	17%[46.1 µM]	8.6%	.
CCC(C)NC(=O)C1CCN(S(=O)(=O)N2CCCC2)CC1 (stereo not given)	1%	-4%	16%	2%	14%	14%	2.7%	5%
COc1ccc(C(=O)NCC(=O)OCC(=O)c2cc(OC)c(OC)c(OC)c2)cc1OC	-10%	-10%	-1%	0%	-6%	.	-25%	-1%
CCn1c(SCC(=O)c2cc(OC)ccc2OC)nc2c1c(=O)n(C)c(=O)n2C	-8%	3%	.	3%	.	.	-0.4%	-3%
Cc1ccc(-c2c(C)n([O-])c3c([n+]2=O)CCCCC3)o1	4%	13%	-9%	4%	8%	-13%	-0.4%	5%
Cc1ccc2sc(N(CCN(C)C)C(=O)c3ccc(S(=O)(=O)N4CC(C)OC(C)C4)cc3)nc2c1C (stereo not given)	.	14%	10%	?	1%	18%[46.1 µM]	.	7%
CN1CCCC(C(=O)c2ccccc2)C1 (stereo not given)	-5%	5%	-9%	-2%	-10%	-3%	4.2%	3%
CC(C(=O)Nc1cccc(C#N)c1)n1nc(-c2ccccc2)c2c(c1=O)CCCC2 (stereo not given)	-3%	.	?	-27%[46.1 µM]	.	-29%[46.1 µM]	-6.3%	.
COc1ccccc1/C=C/CN1CCCC(CO)(Cc2cccc(Cl)c2)C1 (stereo not given)	.	0%	?	13µM*	-25%	14µM*	.	-1%
Cc1ccc(OCC(O)CNC(C)c2ccccc2)cc1C (stereo not given)	.	1%	-17%	.	4%	.	.	12%
CCN(c1ccccc1)S(=O)(=O)c1ccc(OCc2c(C)noc2C)cc1	15%	25%	-16%	-16%	-8%	?	1.3%	-9%
Cc1csc(SC(C)C(=O)NCC(=O)Nc2ccc(F)c(F)c2F)n1 (stereo not given)	.	0%	0%	-1%[46.1 µM]	-2%	14%	.	.
Cc1cccc(NC(=O)NNC(=O)CCc2ccccc2)c1	.	1%	-10%	.	19%	.	.	6%
COc1ccc(/C(N)=N/OC(=O)CCC2CCCC2)cc1OC	.	5%	20%	.	-7%	.	.	-8%
COc1ccc(CSCCN)cc1Cl	3%	5%	32%[activator]	13%	-2%	-3%	2.0%	-3%
COc1ccc(Nc2cc(C(=O)NCCCN3CCN(c4ccc(OC)cc4)CC3)c3ccccc3n2)cc1	-6%	.	40µM*	.	.	?	-27%	.
COc1ccc(N2CCN(Cc3nc4cc(Cl)ccc4c(=O)[nH]3)CC2)cc1	.	1%	6%	14%[46.1 µM]	-14%	18%	.	1%
N#CCSCC(=O)Nc1ccccc1	11%	9%	20%	15%[46.1 µM]	-3%	1%	9.8%	-2%
O=c1[nH]c(=O)n(-c2ccc(F)cc2)c(O)c1C=NCCN1CCCCC1	.	0%	3%	?	-19%	16%[46.1 µM]	.	-2%
COc1ccc(OC)c(CCNC(=O)CCc2cn(Cc3cc(C)ccc3C)c3ccccc23)c1	-18%	.	-10%	.	.	-12%[46.1 µM]	-3.2%	.
COc1ccc(NC(=O)CN(C)C(=O)/C=C/c2cn(-c3ccccc3)nc2-c2ccc(F)cc2)cc1	.	5%	13%	?	-3%	?	.	.
O=Cc1ccccc1-n1cncn1	.	0%	0%	-9%[46.1 µM]	2%	-25%	.	1%
Cc1cccc(C(=O)Nc2ccc(C(=O)OCc3cc(=O)n4c(C)csc4n3)cc2)c1	-1%	.	19%	.	.	-17%[46.1 µM]	0.1%	.
Cc1ccc(S(=O)(=O)N2CCOCC2)cc1NC(=O)CN1CCN(c2ccc(O)cc2)CC1	10%	8%	?	-24%	2%	-5%	2.4%	17%
Cc1nnc2ccc(N3CCCCC3)nn12	.	3%	7%	1%	1%	1%	.	9%
CCOC(=O)c1c(CC(C)C)csc1NC=O	-9%	-3%	-24%	-25%	3%	-12%	-4.7%	-7%
Cc1cc(C)n(CC(O)COc2ccc(C(C)C)c(C)c2)n1 (stereo not given)	.	1%	6%	5%	0%	-13%	.	-21%
COc1ccccc1C(C)NCC(=O)Nc1c(F)cccc1F (stereo not given)	.	1%	36%[activator]	3%[46.1 µM]	-5%	6%	.	.
Cn1cnc([N+](=O)[O-])c1Oc1cccc(O)c1	-8%	-10%	40µM*	-4%	-16%	-21%	-3.1%	28%
COc1ccccc1OCC(=O)Nc1cccc(N(C)S(C)(=O)=O)c1	-2%	1%	6%	?	7%	7%	-2.0%	-7%
Cc1cccc(N(C(=O)c2nsc(Cl)c2Cl)C(C(=O)NC2CCCC2)c2ccc(O)cc2)c1C (stereo not given)	9%	3%	-6%	?	0%	7.3µM*	-1.2%	?
COc1ccc(-c2cc([N+](=O)[O-])ccc2OCC(=O)N(C)CC(=O)Nc2ccc(C)cc2)cc1	.	5%	?	?	0%	?	.	.
O=C(NC1CCCC1)NS(=O)(=O)c1ccccc1Cl	-5%	6%	-9%	-6%	-4%	1%	4.9%	-1%
COc1ccc(-n2nc(C(=O)NCC(=O)N3CC(C)CC(C)C3)c3ccccc3c2=O)cc1 (stereo not given)	.	-2%	-19%	-9%[46.1 µM]	-5%	.	.	10%
O=C1C2=C(Nc3ccccc3SC2c2ccc(Cl)c(Cl)c2)c2ccccc21 (stereo not given)	10µM*	.	1%	-13%[46.1 µM]	.	?	-2.2%	.
Cc1ccc(NC(=O)CN(C)C(=O)c2ccc(OCc3c(C)noc3C)cc2)cc1	.	1%	-23%	2%	-24%	9%	.	.
COC(=O)c1cn(CCOc2ccc(C)cc2)c2ccccc12	8%	2%	-23%	?	-21%	2%	-3.1%	-7%
O=C(C1CCCN(S(=O)(=O)c2cccs2)C1)N1CCN(c2ccccc2F)CC1 (stereo not given)	12%	.	-15%	-21%[46.1 µM]	.	-14%[46.1 µM]	-4.4%	.
Cc1c(OCc2nn[nH]n2)ccc2c3c(c(=O)oc12)CCC(C)C3 (stereo not given)	20%	7%	1%	9%	-20%	0%	-5.1%	-5%
CCN1CCN(C(=O)C2(NC(=O)Nc3ccccc3Cl)CCCCC2)CC1	-2%	5%	-16%	-4%	-2%	2%	2.4%	1%
CCn1cc(C(=O)NCc2ccccc2)c(=O)c2cc(S(=O)(=O)N3CCOCC3)ccc21	-7%	.	1%	1%[46.1 µM]	.	?	1.1%	.
COc1ccc(CCNC(=O)CCCCCN2C(=O)c3ccccc3C2=O)cc1	4%	0%	1%	26%	0%	21%	1.8%	-21%
COc1ccc(C(=O)CSC2=C(C#N)C3(CCCCC3)C(C#N)=C(N)N2)cc1	?	-10%	?	-7%&-7%	8%	-12%	-3.6%	13%
C=CCNc1cc(C(F)(F)F)nc(-c2ccccn2)n1	-7%	8%	10%	-21%	-14%	?	0.1%	12%
O=C(COc1ccc(Br)cc1)NNC(=S)NC(=O)c1ccccc1[N+](=O)[O-]	?	20%	-21%	24%	11%	2%	-0.2%	?
CC(=O)N1CCN(S(=O)(=O)c2cccc(C(=O)OCC(=O)NC(=O)c3cccn3C)c2)CC1	?	16%	16%	?	7%	10%	-0.9%	-10%
CCOC(=O)C(C(=O)OCC)N(C#N)c1nc(OC)nc(N(C)C)n1	10µM*	1%	-11%	?	1%	12%	3.5µM*	3%
Fc1cccc(Cc2noc(CN3CCC(c4ccncc4)CC3)n2)c1	.	-1%	?	.	-9%	.	.	0%
COc1ccc(OC)c(S(=O)(=O)N(C)CC(=O)N2CCN(c3ccccc3F)CC2)c1	?	-4%	-17%	-24%	6%	-7%	1.9%	-24%
CCCc1cc(=O)[nH]c(SCC(=O)N(C)CC(=O)Nc2ccc(F)cc2)n1	.	2%	-3%	-15%	-6%	9%	.	.
Cc1nc(C)c(C(=O)C2=C(O)C(=O)N(CCN(C)C)C2c2ccccc2)s1 (stereo not given)	-10%	10%	-13%	21%	25%	12%	-2.8%	-3%
CCOc1ccc(NS(=O)(=O)c2c(C)nc3sc(C)c(C)n3c2=O)cc1	-10%	.	-22%	.	.	-24%[46.1 µM]	-3.5%	.
COc1cc(N(C)C)c(NC(C)=O)cc1C(=O)O	-5%	11%	1%	11%	10%[3.69 µM]	20%	-0.5%	3%
CCOc1ccc(NC(=O)c2nnn(CC(=O)Nc3ccccc3OCC)c2N)cc1	13%	-1%	0%	0%	-2%	1%	0.9%	-11%
COc1ccccc1CNC(=O)c1cccc(S(=O)(=O)N2CCCC2)c1	.	1%	12%	29%	5%	3%	.	.
N#Cc1nc(COc2ccc(F)cc2)oc1N1CCC(Cc2ccccc2)CC1	-22%	-2%	-13%	3%&3%	-5%	-27%	4.2%	-3%
O=C(CCn1c(=S)oc2ccccc21)Nc1ccccc1Br	.	0%	2%	.	-10%	.	.	4%
COc1ccc(S(=O)(=O)N[C@H](C(=O)O)C(C)C)cc1	7%	-8%	-7%	-1%	-12%	-8%	3.9%	0%
CCOc1cccc2cc(-c3nc4sc5c(c4c(=O)[nH]3)CCC(C)C5)c(=O)oc12 (stereo not given)	4%	.	-14%	.	.	4%[46.1 µM]	-1.3%	.

Looked up by compound from above (two):
SMILES	Cruzain noTriton	SARS PLpro yeast	2A StopGo	MARV entry inh	RE007 growth inh	Lassa entry inh	Cruzain inh Det	NS1 inh
COc1ccc(S(=O)(=O)N[C@H](C(=O)O)C(C)C)cc1	7%	-8%	-7%	-1%	-12%	-8%	3.9%	0%
COc1ccc(C(=O)CSC2=C(C#N)C3(CCCCC3)C(C#N)=C(N)N2)cc1	?	-10%	?	-7%&-7%	8%	-12%	-3.6%	13%

High-throughput results as filed in PubChem.
